TRPML1 ag – agonists of human TRPML1 channel. Q9GZU1. TRPML1-expressing cells, Ca2+ dye fluorescence, FDSS; host cell line not named in the record; reference of the full effect not given here. activation, % (test concentration not listed). 0.12% of 410,000 active. AID 624414; in the data active = activation above about 50%; inconclusive = about 30% to 50%; inactive = below about 30%; note: 0% is about no effect; the text of the record puts the active cut at 80%
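TRPML1-DL cells, Tet-induced overnight (~16 h, 37 degrees C), loaded 45-90 min at room temperature with Ca8 no-wash calcium dye plus quencher. FDSS fluorescence: 10 s baseline, compound pin-transfer, 110 s agonist read, then EC80 54-4 (4uM final) and 110 s antagonist read.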
CtBP-E1A blk – blocks the CtBP interaction with E1A | AlphaScreen GST-E1A/His-CtBP binding, 1536-well; hits give low values; control for the full effect not named in the record | activity change, % (test concentration not listed) | 0.49% of 340,000 active | AID 651724; in the data active means activity change below about -65%; inconclusive means about -30% to -65%; inactive means above about -30%; note: % is set by controls: 0 for no effect and ±100 for the full control effect; compound concentration not given in the record
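Protein mix (5X: 125 nM each GST-E1A, His-CtBP) was incubated with pinned compound 2 h at 37 deg C in dark, in 50 mM Tris pH 8.0 buffer with 300 mM NaCl. Glutathione donor and nickel acceptor beads followed; AlphaScreen signal read after 1 h.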
PINK1 expr mod – PINK1 expression modulation; PINK1 immunofluorescence, high-content cytometry, 24 h; Potency, µM (highest dose often 76.6 µM), for the others: at the top dose activation (PINK1 increase), most hits filed as activators; 0.2% of 410,000 active; active = well fitted activation curve with a large enough effect; inconclusive = small, poorly fitted or top-dose-only effect; inactive = flat fitted curve, though single readings scatter; cell line not stated here;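 note: potency is the fitted concentration of half-maximal effect; % of control where 0% means no effect; nearly all actives have a fitted effect of over 65% in size; a mitochondrial uncoupler was the plate control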
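A stable cell line was treated with compounds at 5 concentrations for 24 hours, with CCCP as control. PINK1 levels and mitochondrial localization were measured by immunofluorescence with mitochondrial, cell and nuclear markers after fixation, read by laser-scanning cytometry.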
Six1-Eya2 inh – blocks human Six1 binding to Eya2. Q15475+O00167. AlphaScreen GST-Six1/His-Eya2 binding, biochemical; hits give low values; control for the full effect not named in the record. activity change, % (concentration not given with the values). 0.56% of 360,000 active; in the data active = activity change below about -65%; inconclusive = about -30% to -65%; inactive = above about -30%; note: % is set by controls: 0 for no effect and ±100 for the full control effect
Target sequence (O00167 whole entry, looked up): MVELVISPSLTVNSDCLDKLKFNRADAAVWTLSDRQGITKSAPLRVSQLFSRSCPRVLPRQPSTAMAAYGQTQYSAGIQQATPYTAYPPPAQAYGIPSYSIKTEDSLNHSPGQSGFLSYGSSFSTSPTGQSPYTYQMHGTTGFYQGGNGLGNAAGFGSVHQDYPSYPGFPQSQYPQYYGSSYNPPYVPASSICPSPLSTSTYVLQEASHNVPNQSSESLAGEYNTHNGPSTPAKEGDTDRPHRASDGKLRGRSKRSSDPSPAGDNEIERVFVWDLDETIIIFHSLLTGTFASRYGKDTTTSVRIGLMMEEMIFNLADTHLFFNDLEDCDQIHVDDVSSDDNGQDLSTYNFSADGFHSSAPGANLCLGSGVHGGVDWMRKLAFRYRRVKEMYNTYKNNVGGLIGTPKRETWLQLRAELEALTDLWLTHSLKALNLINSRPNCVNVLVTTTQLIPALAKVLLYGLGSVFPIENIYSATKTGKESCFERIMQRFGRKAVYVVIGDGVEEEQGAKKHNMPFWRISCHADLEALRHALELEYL
Target sequence (Q15475 whole entry, looked up): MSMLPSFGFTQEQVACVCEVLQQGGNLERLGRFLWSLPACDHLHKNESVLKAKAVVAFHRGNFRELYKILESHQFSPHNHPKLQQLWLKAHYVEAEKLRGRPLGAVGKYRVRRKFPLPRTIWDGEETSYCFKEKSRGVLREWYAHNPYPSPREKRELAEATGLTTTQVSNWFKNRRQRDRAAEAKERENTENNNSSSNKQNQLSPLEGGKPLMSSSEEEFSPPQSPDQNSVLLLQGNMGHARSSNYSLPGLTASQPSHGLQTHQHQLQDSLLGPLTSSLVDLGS
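Six1/Eya2 binding was read as AlphaScreen signal after compounds were pinned into GST-Six1 plus His-tagged Eya2 (5X stock 250/500 nM) in pH 8.0 Tris/NaCl/TCEP buffer, beads added, then incubated 1 h, 37 C, dark.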
D2 ag – activates the human D2 dopamine receptor | 0.084% of 360,000 active | AID 624465 | activation, % (concentration not given with the values) | DiscoveRx PathHunter D2 beta-arrestin, luminescence, 90 min; 100% = 57 uM dopamine signal | P14416; in the data active = activation above about 40%; inconclusive = about 15% to 40%; inactive = below about 15%; note: compound concentration not given in the record; the text of the record calls up to 30% inactive
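Agonist mode: compounds alone added to overnight-plated D2 PathHunter cells for 90 min at 37 C, with 57 uM final dopamine (EC100) defining full response. Beta-arrestin recruitment detected by chemiluminescent reagent, read after 1 h at ambient temperature.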
TRPML1 blocker – human mucolipin-1 channel inhibition. Q9GZU1. TRPML1-inducible cells, Ca2+ dye fluorescence, FDSS; hits give low values; inhibition of EC80 agonist-evoked calcium signal. activity change, negative = inhibition, % (test concentration not listed). 0.02% of 390,000 active. AID 624415; in the data active means activity change below about -50%; inconclusive means about -30% to -50%; inactive means above about -30%;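 note: stimulus is agonist 54-4 at its EC80 concentration; % is set by controls: 0 for no effect and ±100 for the full control effect; compound concentration not given in the record; the text of the record puts the active cut at -80%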
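Tet-induced TRPML1-DL cells loaded with Ca8 no-wash calcium dye were read kinetically on FDSS. Compound addition was followed by EC80 agonist 54-4 (4 uM final); inhibition was read over 110 s.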
Numbers without * were called inactive; u = inconclusive; x = not tested or not shown; & = joins results of further samples; [ ] = remark or other dose.

Compound	TRPML1 ag	CtBP-E1A blk	PINK1 expr mod	Six1-Eya2 inh	D2 ag	TRPML1 blocker
CC(=O)OCCc1c(C)nc2nc[nH]n2c1=O	1.1	7	0.6%	7	-4.3	-1
Nc1nc2ccc(Cl)cc2cc1C(=O)NC1CC1	-0.3	-9	0.6%	-15	x	x
CS(=O)(=O)Nc1cccc(NC(=O)c2cccc3c(-c4cccc(C(N)=O)c4)coc23)c1	0.2	-72*	-0.3%	u	u	x
Clc1ccc2c(c1)C(N1CCNCC1)Cc1ccccc1S2 (configuration not stated)	3.2	-15	-1.5%	-3	-3.0	-10
Cc1ccc(NCC(=O)N/N=C/c2ccc(-c3cccc(C(F)(F)F)c3)o2)cc1	3.8	7	-0.1%	-15	-0.9	-1
CC1(C(=O)O)CCCN1C(=O)c1cc2ccccc2s1 (configuration not stated)	-0.4	15	2.1%	4	-4.9	x
O=C1CC(=O)Nc2cc(S(=O)(=O)Nc3cccc(C(F)(F)F)c3)ccc2N1	-0.6	4	0.3%	3	1.6	-1
COc1ccc(-c2nnc(NC(=O)C3CCCN3S(=O)(=O)c3cccs3)o2)cc1 (configuration not stated)	-1.1	-19	3.0%	u	2.7	1
COc1ccc2nc(NC(=O)CSc3nnc(C)n3N)sc2c1	-0.8	2	0.6%	3	-1.3	0
CCCCC(=O)Nc1ccc2c(c1)C(=O)NC2=O	-0.4	-13	0.1%	-17	7.3	-2
Cc1ccc(COc2coc(CN3CCN(C(=O)c4ccco4)CC3)cc2=O)cc1	0.7	-2	-3.9%	0	2.9	20
O=C(N/N=C/c1ccc([N+](=O)[O-])s1)c1ccccc1	2.9	-6	-1.4%	-11	6.6	13
COc1ccc(C(=O)Nc2ccc(Oc3nc(C)nc4sc(-c5ccccc5)cc34)cc2)cc1OC	2.3	0	8.9%	1	-3.3	-17
Cc1ccc(S(=O)(=O)NC(C(=O)N2CCN(S(=O)(=O)c3cccc(F)c3)CC2)C(C)C)cc1 (configuration not stated)	-1.0	8	2.0%	3	-5.2	-2
COc1ccc(CN2CCC(=O)N([C@H](CO)Cc3ccccc3)CC2)cc1OC	-0.7&0.1	7	-0.3%	2	-2.7	39
Cc1c(OC(C)C(=O)N[C@H](C(=O)O)c2ccccc2)ccc2c3c(c(=O)oc12)CCCC3 (some centres not stated)	x	u	0.4%	u	-8.0	x
CC(C)Nc1nc(NC(C)C)nc(N(C)C#N)n1	1.1	-8	-2.8%	5	-3.2	9
Cc1ccc(NC(=O)CCCc2nc(-c3ccco3)no2)cc1Cl	0.4	x	0.2%	x	x	33
CCOC(=O)CSc1nnc(-c2ccc(Cl)cc2Cl)o1	4.1	19	-1.1%	47	-2.8	-26
COc1ccc(C(O)P(=O)(OCCC(C)C)c2ccc(N(C)C)cc2)cc1 (configuration not stated)	2.3	-7	-0.9%	-1	2.0	6
Cc1ccc(N(C(=O)CNC(=O)c2ccco2)C(C(=O)NC2CCCC2)c2cccnc2)cc1F (configuration not stated)	-1.2	-2	3.5%	0	-7.3	-6
CCOc1ccc2ncc(S(=O)(=O)c3ccc(C)cc3)c(N3CCC4(CC3)OCCO4)c2c1	14	-10	0.2%	-13	-2.2	-4
COc1cc(N)c2ncccc2c1SC	0.5	-1	0.5%	-1	3.7	0
CCc1ccc(/C=C2\SC(=S)N(CCCC(=O)Nc3nccs3)C2=O)cc1	0.9	2	u	0	-8.5	-17
O=C1c2ccccc2NC(c2ccc3c(c2)OCO3)N1O (configuration not stated)	2.1	-1	6.2%	-4	-1.3	5
CC1(c2ccccn2)Nc2ccccc2-c2nc3ccccc3n21 (configuration not stated)	-1.3	8	-3.6%	-2	-0.7	3
CCc1n[nH]c(=S)n1/N=C/c1ccc(N(C)c2ccccc2)cc1	0.5	-10	4.6%	-27	-6.9	-1
Cc1onc(CO)c1C(=O)Nc1nccs1	-0.3	-3	-0.7%	-5	-2.4	4
Cc1nc(Nc2ccc(Cl)cc2)c2oc3ccccc3c2n1	0.7	3	8.9%	-7	-3.6	18
COc1ccc(S(=O)(=O)N(C)C[C@H]2Oc3c(NC(=O)Cc4ccccc4)cccc3C(=O)N([C@H](C)CO)C[C@@H]2C)cc1	0.7	-12	2.0%	1	-6.1	-13
O=C(CSc1nnc2ccc(-c3cccnc3)nn12)Nc1ccc(F)cc1	-0.4	0	-1.9%	2	-4.9	-3
O=C(NC1CCCC1)c1cccnc1N1CCCCCC1	-0.3	7	x	2	-3.7	-8
O=C(COC(=O)CCC(=O)c1ccc(Cl)cc1)NCCc1ccccc1	0.9	0	1.9%	8	-7.5	19
O=C(CC(Nc1ccc(F)cc1)C(=O)O)c1ccccc1 (configuration not stated)	0.8	10	0.4%	-9	-0.5	-3
COC(=O)c1nc2n(n1)C(c1cc(OC)ccc1OC)C(C(=O)OC1CCCCC1)=C(C)N2 (configuration not stated)	3.7	-2	x	-13	-4.3	-2
CN(C(=O)COc1ncnc2sccc12)c1ccccc1	0.2	6	-4.3%	-3	-0.4	-8
CCOc1ccccc1N(CC)C(=O)Cn1ncc2c1-c1ccccc1OC2	0.1	x	0.3%	x	x	33
O=C(Nc1ccc(C(=O)O)cc1)/C(=C\c1ccco1)NC(=O)c1ccco1	0.0	2	-2.4%	4	-4.7	-18
O/N=C1\CCC\C1=C/c1ccco1	0.7	-1	32%[38.3 µM]	-4	-2.0	-12
COC(=O)c1c(NC(=O)c2cccs2)sc2c1CCCC2	1.0	16	0.0%	41	0.9	10
CCCCN(CC)C(=O)c1ccc2c(c1)OCO2	1.4	0	0.1%	2	1.0	20
CCOc1ccc2nc(N3CCCC(C(=O)NCCc4ccc(Cl)cc4)C3)sc2c1 (configuration not stated)	1.3	x	-1.3%	x	x	-1
O=S(=O)(c1ccc(SCCOc2ccc(Br)cc2)nc1)N1CCCC1	2.3	-3	2.4%	9	0.8	3
CCCc1nnc(NC(=O)Nc2ccccc2OC)s1	-1.3	-9	2.9%	-1	-6.0	-3
CCn1c(SCC(=O)Nc2ccc(S(=O)(=O)Nc3ccccn3)cc2)nnc1-c1ccncc1	-1.1	13	0.1%	-1	-0.6	-1
Cc1ccc(NC(=O)CN2C(=O)NC(C)(C3CC3)C2=O)c([N+](=O)[O-])c1 (configuration not stated)	0.2	0	-0.4%	19	3.4	3
COCCNC(=O)C1(C)CCCN(C(=O)COc2ccccc2)C1 (configuration not stated)	-0.6	-11	3.8%	2	3.4	x
OCCNc1ncnc2c1ncn2Cc1ccccc1	-1.0	10	0.0%	4	-3.0	2
COc1ccc(CNC(=O)c2ccc(N3CCC4(CC3)CC(c3ccc(Cl)cc3)=NO4)c(NC(=O)Cc3ccc(F)cc3)c2)cc1	0.0	5	4.9%	10	-7.1	-11
O=C(NN=Cc1cc(Cl)ccc1[N+](=O)[O-])c1cccc2ccccc12	1.0	1	2.0%	-4	1.8	3

Later entries.
Compound	TRPML1 ag	CtBP-E1A blk	PINK1 expr mod	Six1-Eya2 inh	D2 ag	TRPML1 blocker
CNc1ccc(-c2ccccc2OC)cn1	-0.8	0	-0.1%	-1	-4.6	x
CSc1ccc(-c2sc(Nc3cccc4ccccc34)n[n+]2-c2ccccc2)cc1	-0.4	-25	-0.5%	-21	-0.1	28
CC(=O)c1cccc(NC(=O)C2Cc3c(-c4ccccc4Oc4ccccc4)ccnc3O2)c1 (configuration not stated)	5.5	u	0.4%	-14	3.2	12
Cn1cc(SCC(=O)NC2CCCCC2)c2ccccc21	0.6	0	1.0%	-8	-1.6	0
COc1ccc(C(=O)NC(=S)NCc2ccccc2)cc1	1.4	-3	4.1%	-16	-2.8	17
COc1ccc(CNC(=O)CCn2nc(C)c3c(C)n(-c4ccccc4)nc3c2=O)c(OC)c1	-0.7&1.4	5	1.3%&-1.1%	0	-6.2	18&11
Cc1onc(-c2c(F)cccc2Cl)c1C(O)c1ccc(F)cc1 (configuration not stated)	-0.7	-1	1.8%	-10	-6.0	-7
CCCCn1c(NCCC)nc2c1c(=O)[nH]c(=O)n2C	2.0	3	-1.2%	4	-0.4	-12
O=C(O)CCc1ccc(-c2ccc(Cl)cc2)o1	-0.7	5	-0.1%[38.3 µM]	-1	0.7	-3
COc1ccc(C(=O)COC(=O)CCCn2c(=O)oc3ccccc32)cc1	0.2	8	-2.2%	5	-1.8	-5
CC(=O)Nc1ccc(S(=O)(=O)N(C2=NCC(C)S2)c2ccccc2)cc1 (configuration not stated)	1.3	21	3.8%	18	0.7	14
COc1ccccc1CNC(=O)CSc1ccc(C(=O)Nc2ccccc2OC)cc1[N+](=O)[O-]	-0.8	-1	7.2%	-7	-1.7	-10
Cc1ccc(NC(=O)C(C)OC(=O)COc2cccc(C(F)(F)F)c2)cc1S(=O)(=O)N1CCOCC1 (configuration not stated)	2.1	-7	0.0%	-1	-2.4	-7
COc1cccc(CNC(=O)Cn2cc3c(n2)CCCC3)c1	0.5	4	1.2%	4	-4.1	4

Five of the compounds above, with two lines to a compound:
Under each structure: TRPML1 ag	CtBP-E1A blk	PINK1 expr mod	Six1-Eya2 inh	D2 ag	TRPML1 blocker
> COc1ccccc1CNC(=O)CSc1ccc(C(=O)Nc2ccccc2OC)cc1[N+](=O)[O-]
    -0.8	-1	7.2%	-7	-1.7	-10
> Cc1ccc(NC(=O)C(C)OC(=O)COc2cccc(C(F)(F)F)c2)cc1S(=O)(=O)N1CCOCC1 (configuration not stated)
    2.1	-7	0.0%	-1	-2.4	-7
> COc1ccc(CNC(=O)CCn2nc(C)c3c(C)n(-c4ccccc4)nc3c2=O)c(OC)c1
    -0.7&1.4	5	1.3%&-1.1%	0	-6.2	18&11
> COc1cccc(CNC(=O)Cn2cc3c(n2)CCCC3)c1
    0.5	4	1.2%	4	-4.1	4
> CC(=O)Nc1ccc(S(=O)(=O)N(C2=NCC(C)S2)c2ccccc2)cc1 (configuration not stated)
    1.3	21	3.8%	18	0.7	14
